NPR1 antag = antagonists of human natriuretic peptide receptor Npr1. 76,000 tested, 1.6% active. Potency, µM (titrated, usually from 46.3 µM), inactives show top-dose activity change, negative = inhibition, actives largely listed as inhibitors. HEK293 hNpr1 GloSensor cGMP, ANP-stimulated luminescence; active = well fitted inhibition curve with a large enough effect; inconclusive = small, poorly fitted or top-dose-only effect; inactive = no such curve, though single readings can be large or run the other way;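 further: nearly all actives have a fitted effect of over 60% in size; nearly all hits also lower the signal before the agonist is added; a reference antagonist and vehicle were the controls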
Target sequence (P16066 whole entry, looked up): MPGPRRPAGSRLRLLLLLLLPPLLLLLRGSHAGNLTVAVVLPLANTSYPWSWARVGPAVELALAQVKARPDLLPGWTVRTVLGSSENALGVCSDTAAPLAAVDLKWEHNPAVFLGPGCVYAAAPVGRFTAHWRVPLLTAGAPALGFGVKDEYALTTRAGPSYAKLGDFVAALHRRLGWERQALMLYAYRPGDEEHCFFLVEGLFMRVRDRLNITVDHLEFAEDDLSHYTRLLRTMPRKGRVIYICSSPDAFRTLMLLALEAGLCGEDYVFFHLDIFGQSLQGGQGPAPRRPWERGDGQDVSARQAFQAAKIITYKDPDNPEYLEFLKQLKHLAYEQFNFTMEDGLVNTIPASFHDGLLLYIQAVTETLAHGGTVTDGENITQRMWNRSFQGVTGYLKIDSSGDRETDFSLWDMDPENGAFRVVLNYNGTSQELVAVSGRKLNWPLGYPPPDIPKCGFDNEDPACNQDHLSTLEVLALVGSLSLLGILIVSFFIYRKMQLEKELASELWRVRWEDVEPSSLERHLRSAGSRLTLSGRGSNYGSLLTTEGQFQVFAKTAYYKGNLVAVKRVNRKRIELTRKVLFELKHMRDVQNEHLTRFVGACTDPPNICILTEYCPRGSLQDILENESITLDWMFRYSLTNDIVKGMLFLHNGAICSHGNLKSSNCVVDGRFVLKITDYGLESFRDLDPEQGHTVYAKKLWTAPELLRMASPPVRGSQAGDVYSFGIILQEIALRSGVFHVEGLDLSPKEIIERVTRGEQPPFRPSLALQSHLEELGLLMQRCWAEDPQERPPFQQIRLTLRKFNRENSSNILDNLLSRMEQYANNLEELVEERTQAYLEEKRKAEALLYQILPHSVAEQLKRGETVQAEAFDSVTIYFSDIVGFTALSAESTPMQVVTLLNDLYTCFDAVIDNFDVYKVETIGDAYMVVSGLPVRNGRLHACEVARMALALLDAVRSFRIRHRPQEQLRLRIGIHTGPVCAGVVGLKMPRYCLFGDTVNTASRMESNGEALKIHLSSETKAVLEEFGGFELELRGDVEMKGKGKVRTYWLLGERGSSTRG
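HEK293 cells stably expressing human Npr1 and cGMP GloSensor pGS-40F, loaded 2 h with 2% GloSensor reagent, given compound 30 min at room temperature. Luminescence read before and 20 min after 0.1 nM hNppA.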
Starred values were filed as active, the others as inactive; u = inconclusive; [ ] = dose if it differs, or a comment. On the % scale 0 is the no-effect control and ±100 the full control effect; potency means the concentration at half of the fitted maximal effect. A portion of the library; the hit share may differ from the screen's.

SMILES | NPR1 antag
Cc1cc(=O)n(CC(=O)NCc2cccs2)c(N(C)Cc2ccccc2)n1 | -16%
O=C1NCCCCCCN(Cc2ccncc2)[C@@H]2CN(C(=O)Nc3ccc4c(c3)OCCO4)CC[C@H]12 | -3%
CN1C[C@H](C(=O)Nc2ccccc2)C[C@H]1c1cccc(C(F)(F)F)c1 | -15%[70.6 µM]
CC1=NS(=O)(=O)N(Cc2ccccc2)C=C1C(=O)OCc1nc(-c2ccccc2F)no1 | -19%
Cc1ccc(C2Cn3nnc(-c4nc(-c5ccc(C(F)(F)F)cc5)no4)c3CO2)c(C)c1 (stereo unspecified) | 1%
O=C(NCC1CCN(Cc2ccccn2)C1)Nc1ccccc1Cl (stereo unspecified) | 6%
COCCNC(=O)C1CCN(C(=O)N2CC3CC(C2)[C@H]2CCCC(=O)N2C3)CC1 (stereo partly specified) | 3%
COc1ccc(Cl)cc1S(=O)(=O)N1CCCC(Cn2c(C)nc3cccnc32)C1 (stereo unspecified) | -23%
CCCc1noc(-c2nc(-c3ccc(OC)c(OC)c3)no2)n1 | 2%
CCOCC(=O)N1CCCn2cc(-c3ccccc3)nc21 | 0%
CC(C)c1ccccc1NC(=O)N1CCOC(C(F)(F)F)C1 (stereo unspecified) | -2%
Cc1nnc(C2CCCCCN2C(=O)c2nn(C)c3ccccc23)o1 (stereo unspecified) | 4%
COCCc1nncn1C1CCN(C(=O)c2cc(F)cc(F)c2)CC1 | 1%
O=C(NCCCc1ccncc1)C1CC12CCN(C(=O)c1cccc(C(F)(F)F)c1)CC2 (stereo unspecified) | 3%
COC[C@H]1C[C@@H](NC(=O)Nc2cccc(F)c2)[C@H](O)[C@@H]1O | 6%[70.6 µM]
CC(=O)Nc1cccc(C(=O)N2CCCN(c3cc(-c4ccc(C)c(C)c4)[nH]n3)CC2)c1 | 6%
NC(=O)COc1ccc(C(=O)N[C@@H]2CN(Cc3ccccn3)CCC[C@H]2O)cc1 | 4%[70.6 µM]
COc1ccc(C(=O)N[C@@H](Cc2ccccc2)C(=O)N2CCCOCCNC(=O)CC2)cn1 | 7%
CC(C)CN(CC1CN(C(=O)NCc2ccccc2)CCO1)C(=O)c1ccc2c(c1)OCO2 (stereo unspecified) | -3%
COCc1noc(CCNc2cc(C)nc(-c3ccccc3O)n2)n1 | 3%

In the list so far, 4 have a CF3 group:
SMILES | NPR1 antag
CN1C[C@H](C(=O)Nc2ccccc2)C[C@H]1c1cccc(C(F)(F)F)c1 | -15%[70.6 µM]
Cc1ccc(C2Cn3nnc(-c4nc(-c5ccc(C(F)(F)F)cc5)no4)c3CO2)c(C)c1 (stereo unspecified) | 1%
CC(C)c1ccccc1NC(=O)N1CCOC(C(F)(F)F)C1 (stereo unspecified) | -2%
O=C(NCCCc1ccncc1)C1CC12CCN(C(=O)c1cccc(C(F)(F)F)c1)CC2 (stereo unspecified) | 3%

(continued)
SMILES | NPR1 antag
O=C(NCc1ccc(Cl)cc1)[C@@H]1Cc2nc[nH]c2CN1Cc1cccs1 | -2%[70.6 µM]
COc1ncccc1-c1cc(-c2ccncc2)c2cncn2c1 | 2%[70.6 µM]
CN(Cc1nc2ccsc2c(=O)[nH]1)C(=O)CCC1NC(=O)NC1=O (stereo unspecified) | 0%
CC(=O)N[C@H]1C[C@@H](c2cc(C)c(C)cc2C)O[C@@H](C(C)(C)C)C1 | 6%
NC(=O)C1CCN([C@H]2[C@@H]3OC[C@@H](O3)[C@@H](NC(=O)Nc3ccccc3)[C@@H]2O)CC1 | 3%[70.6 µM]
Cn1cc(CN2CCNc3cnc(-c4ccccc4)cc3C2)cn1 | 0%[70.6 µM]
Cc1noc(C)c1S(=O)(=O)N1CCCC(c2nn[nH]n2)C1 (stereo unspecified) | -1%
CN(Cc1ccccc1)C(=O)C1(c2ccc(NC(=O)C3CC3)cc2)CCCCC1 | -20%
CCN(CC)C(=O)CCc1c(C)nn(-c2ccc(F)cc2)c1Oc1ccccc1F | -25%
CN1CCC([C@@H]2CN(S(=O)(=O)c3cccc(Cl)c3)C[C@H]2C(N)=O)CC1 | 4%
COCC1CN(C)CC12CCN(C(=O)CCc1cccc(OC)c1)CC2 (stereo unspecified) | -1%
C=CCNC(=O)O[C@@H]1CC(C(=O)N[C@@H](Cc2ccc(OC)cc2)C(N)=O)=C[C@@H](NC(=O)c2ccc(OC)cc2)[C@H]1O | 1%
Cc1ccccc1S(=O)(=O)N1CCCC(CCC(=O)N2CCc3ccccc3C2)C1 (stereo unspecified) | -16%
COc1cccc(C2Cn3nnc(-c4nc(-c5ccc(OC(C)C)cc5)no4)c3CO2)c1 (stereo unspecified) | -19%
O=C(NCC1CC1)C1CCN(C(=O)c2ncn3c2COC(c2ccccc2)C3)CC1 (stereo unspecified) | 0%
CC(=O)N[C@H]1C[C@@H](c2nc(-c3cccnc3)no2)N(C)C1 | -1%[70.6 µM]
COC(=O)[C@@H]1Cc2c([nH]c3ccccc23)[C@H]2C[C@@H](NCCCn3ccnc3)C[C@@H](c3ccc(Cl)c(F)c3)N21 | 0%
Cc1nc(C)c(C(=O)N2CCC3(CC2)CN(c2ncccn2)CC3CO)s1 (stereo unspecified) | 2%
O=C(O)CCc1cc2n(n1)CCCN(C(=O)c1ccc3n[nH]nc3c1)C2 | 1%
Cn1nc2n(c1=O)CCC(NS(=O)(=O)c1ccc3c(c1)CCCC3)CC2 (stereo unspecified) | -1%
COC[C@@H]1CN(c2cnccn2)C[C@H]1C(=O)NCc1c(C)n[nH]c1C | 0%
O[C@@H]1C[C@@H](c2nnc3n2CCN(Cc2ccccc2)C3)N(Cc2ccccc2)C1 | 1%
Cc1ccc(C(=O)NCCc2ncc(C)n2C2CCCC2)cn1 | -3%
Cc1ccc(CCNC(=O)c2cc3c(=O)[nH]c(C)cn3n2)cc1 | 2%
COc1ccc(-c2cc3c(=O)n(CCNC(=O)Cc4cccs4)ccn3n2)cc1 | -19%
Cc1cccc(C(=O)N2CC(N(CC3CC3)C3CCOCC3)C2)c1 | 0%
Cc1ccc2c(c1)nc1n2[C@@H](CNC(=O)NC(C)C)COC1 | 1%[70.6 µM]
CC(C)CNC1(Cc2cc(-c3ccc(F)cc3)on2)COC1 | 3%[70.6 µM]
CS(=O)(=O)N(C1CCNCC1)C1CCOCC1 | 4%
CC(C)Cc1cc(C[C@@H]2C[C@H](NC(=O)C(C)(C)C)C2(C)C)no1 | -30%[70.6 µM]
CC1(O)CCCN(c2ncc(C(C)(C)C(=O)O)c(N3CCOCC3)n2)C1 (stereo unspecified) | 4%
CC(CNCc1cccnc1N1CCOCC1)Cc1ccc2c(c1)OCO2 (stereo unspecified) | 1%
Cc1ccc2nc(C3CCN(Cc4ccccc4)CC3)[nH]c(=O)c2c1 | 3%
COc1ccc(NC(=O)N[C@H]2CO[C@H]3[C@@H]2OC[C@@H]3n2cc(CN(C)Cc3ccccc3)nn2)cc1 | 1%
O=[S+]([O-])(c1cccc(C(F)(F)F)c1)N1CCN(c2nc3ncccc3o2)CC1 | 5%
COCCn1c(=O)c2c(n1Cc1ccccc1)CN(C(=O)c1cc3ccccc3[nH]1)CC2 | 1%[70.6 µM]
Cc1ccc(CN2CCCCCNC(=O)[C@H]3C[C@H](C(=O)N4CCc5ccccc5C4)C[C@H]32)o1 | -11%
Cc1nc(-c2c3n(c(=O)n(CC(=O)Nc4cccc(Cl)c4C)c2=O)CCCC3)no1 | 10%
CN(CCNC(=O)CCc1cc2ccccc2[nH]c1=O)C1CCCCC1 | -3%
CCC1=C(C(=O)OC)C(c2ccccc2OC)N2C(CC(=O)N3CCC(C)CC3)=CSC2=N1 (stereo unspecified) | -25%
Cn1c(CNC(=O)CC2CCOC3(CCN(S(C)(=O)=O)CC3)C2)nc2ccccc21 (stereo unspecified) | 4%
COc1ccc(CC(=O)N2CCC(Oc3nccnc3N(C)C)C2)cc1 (stereo unspecified) | 6%
COc1cc(OC)cc(C(=O)N2C[C@@H](F)C[C@H]2C(=O)N2CCCCC2)c1 | 4%
Cc1n[nH]c(C)c1C(N)C(=O)N(Cc1cccnc1)Cc1cccnc1 (stereo unspecified) | 4%
COc1ccc(NC(=O)Cn2c(=O)c(-c3noc(C)n3)c3n(c2=O)CCCC3)c(OC)c1 | 6%
Cc1noc(C)c1-c1ccc2c(n1)CN(Cc1ccc(C(F)(F)F)cc1)C(=O)CO2 | -24%[70.6 µM]
Cc1onc(C(=O)NC2CCN(c3ccc(=O)n(C)n3)CC2)c1CN1CCCC1 | 0%
Cc1cc(=O)n(CC(=O)Nc2cc(F)ccc2F)c(N2CCc3ccccc3C2)n1 | 1%
COc1ccc(C2Cn3nnc(-c4nc(-c5ccc(C)c(C)c5)no4)c3CO2)cc1 (stereo unspecified) | -2%
CNC(=O)C1CN(c2cccc(Cl)c2)C(=O)N1 (stereo unspecified) | 23%[70.6 µM]
Cc1cc(Cn2cc3c4c(cccc42)[C@H](CC(C)C)N[C@H](C(=O)NCc2ccccn2)C3)no1 | -2%
Cc1ccccc1S(=O)(=O)N1CCN(C2CCN(Cc3cccnc3)C2=O)CC1 (stereo unspecified) | 4%
COCCOc1ncccc1-c1noc([C@@H]2CCCN2Cc2ncc[nH]2)n1 | 2%[70.6 µM]
COc1cccc(CN2CCCC(c3nc(-c4cnccn4)no3)CCNC(=O)CC2)c1OC (stereo unspecified) | 2%
O=C(NCc1ccnc2[nH]ccc12)c1cccc(Br)c1 | 7%[70.6 µM]
CN(C)c1cccc(Oc2nnnn2[C@H]2CO[C@H]3[C@@H]2OC[C@@H]3NC(=O)c2ccccc2)c1 | 13µM*
O=C1CCN(S(=O)(=O)c2ccccc2)CCCN(C(=O)c2nccc3ccccc23)CCN1 | -1%
CCc1nc(CN(C)C(=O)C2CCCN2C(=O)C2CCCCC2)no1 (stereo unspecified) | -4%
Cc1ccc(C(=O)N2CCC3(CC2)C(=O)N(CC(=O)N(C)C)CN3c2ccccc2)cc1 | 2%
N#Cc1cccc(CN2CC[C@@H]3OCC(=O)N(Cc4c[nH]c5ccccc45)[C@H]3CC2)c1 | -9%[70.6 µM]

(listing goes on)
SMILES | NPR1 antag
COc1cc(CN2CCN(Cc3cccc(SC)c3)CC2CCO)cc(OC)c1 (stereo unspecified) | 5%
Cc1cccc(NC(=O)CN2C(=O)NC(c3ccc(Cl)cc3)C3=C2COC3=O)c1C (stereo unspecified) | -15%
CNC(=O)N1CCCN(S(=O)(=O)c2ccccc2)CCC(=O)NCC1 | -2%
CN1CC[C@H]2CN(C(=O)c3cnn(C)c3)C[C@@]2(C(=O)O)C1 | 5%
NCC1CCCN(Cc2cccc(-c3nc(-c4cccnc4)cc(=O)[nH]3)c2)C1 (stereo unspecified) | 1%
CNC(=O)c1cc[nH]c1C1CCCN(C(=O)CN2CCCC2=O)C1 (stereo unspecified) | -3%
CS(=O)(=O)NC[C@H]1OC[C@@H](NC2CCC2)[C@@H]1O | -1%[70.6 µM]
COc1cccc(CNC(=O)c2c(OC)cc(=O)n3c2CCCC3)c1OC | 4%
O=C1N[C@H](CCC(=O)N2CCN(Cc3ccccc3)CC2)C(=O)Nc2ccccc21 | -6%
CS(=O)(=O)c1ccc(CN[C@@H]2CO[C@H](CNC(=O)c3ccc(F)cc3)[C@H]2O)cc1 | -12%[70.6 µM]
CCOCCn1c(=O)[nH]c2cc(C(=O)NCc3n[nH]c(C)n3)ccc21 | 1%
CC(=O)NCC(=O)N1CCCC(Nc2ccc(F)cc2)C1 (stereo unspecified) | -1%
Cc1cccc(-c2nocc2CCC(=O)N2CCN(c3ccccn3)CC2)c1 | 0%
CCn1cc(-c2ccncc2)cc1C(=O)NCc1ccc(Cl)cc1 | -17%
CCNC(=O)N[C@H]1[C@H](O)[C@@H](N(CC)CC)[C@@H]2OC[C@H]1O2 | 0%[70.6 µM]
N#Cc1ccc(CN2CCC3(COC(=O)N3Cc3ccccc3)C2)cc1 (stereo unspecified) | -10%[70.6 µM]
Cc1nc(N2CCC(NC(=O)c3cccnc3)CC2)cc(C(F)(F)F)n1 | -7%
Cn1ncc2c(NCCc3cn4ccccc4n3)nc(C3CCCC3)nc21 | 4%
Cn1c(=O)cc(C(=O)NC2CCCc3c2[nH]c2ccc(Cl)cc32)c2ccccc21 (stereo unspecified) | 0%
Cc1cccc(OCC(=O)c2ccc3c(c2)N(C(C)C(=O)N2CCOCC2)C(=O)CO3)c1C (stereo unspecified) | 1%

Retrieved by structure from above:
SMILES | NPR1 antag
CCNC(=O)N[C@H]1[C@H](O)[C@@H](N(CC)CC)[C@@H]2OC[C@H]1O2 | 0%[70.6 µM]
O=C1N[C@H](CCC(=O)N2CCN(Cc3ccccc3)CC2)C(=O)Nc2ccccc21 | -6%
COc1cccc(CNC(=O)c2c(OC)cc(=O)n3c2CCCC3)c1OC | 4%
CS(=O)(=O)c1ccc(CN[C@@H]2CO[C@H](CNC(=O)c3ccc(F)cc3)[C@H]2O)cc1 | -12%[70.6 µM]
CS(=O)(=O)NC[C@H]1OC[C@@H](NC2CCC2)[C@@H]1O | -1%[70.6 µM]
Cc1cccc(NC(=O)CN2C(=O)NC(c3ccc(Cl)cc3)C3=C2COC3=O)c1C (stereo unspecified) | -15%

New compounds follow:
SMILES | NPR1 antag
O=C(N1CCC(Cc2nc(-c3ccc(F)cc3)no2)CC1)C1(c2ccccc2)CC1 | u
CN(CC[C@@H]1CC[C@H](O)[C@@H](C(=O)N(C)Cc2ccccc2)O1)Cc1ccccc1 | -3%[70.6 µM]
C[S+](=O)([O-])c1ccc(-c2nc(C(=O)NCc3ccc4c(c3)OCO4)n3ccccc23)cc1 | -1%
COCCCn1c(C)cnc1CC1CCN(C(=O)NC2CCCCC2)CC1 | 6%
Cc1cc(S(=O)(=O)N2CCCC(Cn3cnc4cccnc43)C2)ccc1F (stereo unspecified) | u

3 structures out of the list, arranged by length of the SMILES, low to high.
SMILES | NPR1 antag
COCCCn1c(C)cnc1CC1CCN(C(=O)NC2CCCCC2)CC1 | 6%
Cc1cc(S(=O)(=O)N2CCCC(Cn3cnc4cccnc43)C2)ccc1F (stereo unspecified) | u
O=C(N1CCC(Cc2nc(-c3ccc(F)cc3)no2)CC1)C1(c2ccccc2)CC1 | u

Compound activity (PubChem)
